Bioassay records deposited in PubChem BioAssay by ICCB-Longwood Screening Facility, Harvard Medical School.
HCMV UL50-53 inh: cytomegalovirus nuclear egress complex inhibition; AID 1918969; actives 0.15% (n = 190,000); inhibition, % (no concentration beside the values); HTRF UL50-UL53 interaction, normalized percent inhibition;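 active = both replicates at 50% or more, plus weaker picks with an unusually low signal ratio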;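 note: stock transfer was 100 nL into about 20 µL; 0% = negative control wells and 100% = wells with untagged competitor protein; inactives centre near -12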
GIV Gai3 FP: blocks GIV peptide binding to rat Galpha-i3 | P08753 | Galpha-i3/FITC-GIV peptide fluorescence polarization, 90 min; active compounds read low; scaled: aluminum fluoride 0%, vehicle 100% | percent of control (FP), % (test concentration not listed) | actives 0.42% (n = 210,000) | AID 1224905;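 active = replicate mean at 85% of control or lower, very high polarization wells dropped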;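 note: lower values mean more displacement of the GIV peptide from Galpha-i3; wells of about 15 µL received 100 nL stock; the first replicate is given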
Target sequence (P08753 whole entry, looked up): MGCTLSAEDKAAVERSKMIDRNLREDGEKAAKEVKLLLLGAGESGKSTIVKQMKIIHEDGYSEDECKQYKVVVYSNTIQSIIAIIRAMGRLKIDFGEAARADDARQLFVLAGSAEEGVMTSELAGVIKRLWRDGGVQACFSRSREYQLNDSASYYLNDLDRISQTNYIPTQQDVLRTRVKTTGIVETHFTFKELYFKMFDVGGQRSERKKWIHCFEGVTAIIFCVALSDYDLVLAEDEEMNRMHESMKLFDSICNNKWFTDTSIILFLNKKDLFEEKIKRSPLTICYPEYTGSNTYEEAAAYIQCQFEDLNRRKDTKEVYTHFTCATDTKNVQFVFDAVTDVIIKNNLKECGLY
An asterisk follows results filed as active; . = not tested or not shown; & = joins results of further samples. An excerpt; count on the stated rates, not on these rows.

SMILES	HCMV UL50-53 inh	GIV Gai3 FP
Cc1sc(C)c(S(=O)(=O)N2CCC(C)CC2)c1-c1cc(C(F)(F)F)on1	.	98
O=C(NC1CCCc2ccccc21)C1CCN(Cc2noc(-c3ccc(F)cc3)n2)CC1 (stereo unspecified)	.	111
CCCS(=O)(=O)c1nc2ccc(NS(=O)(=O)c3ccc(Cl)cc3)cc2s1	.	106
Cc1nn(-c2ccc(-c3ccccc3)nn2)c(C)c1S(=O)(=O)N1CCN(C(C)C)CC1	.	103
O=S(=O)(c1ccccc1-c1nc(-c2ccccc2)no1)N1CCN(c2ccccc2)CC1	.	97
CCN(CC)c1nc2ccsc2c(=O)n1CCC(=O)NCCc1c[nH]c2ccccc12	.	103
CCOC(=O)C1CCN(c2ccc3nnc(CCc4nc(-c5ccc(F)cc5)no4)n3n2)CC1	.	100
O=C(C1CCN(c2nc(-c3ccc(Cl)cc3)no2)CC1)N1CCN(c2ncccn2)CC1	.	102
Cc1noc(C2CN(C(=O)NC(C)(C)C)CC23CCOCC3)n1 (stereo unspecified)	.	99
CN(C)c1ccc2ncc(=O)n(C)c2n1	.	98
CC(C)OC(=O)Cn1nc2c(-c3nc(-c4ccc(Cl)cc4)no3)cccn2c1=O	.	137
C=CC1=C(C(=O)O)N2C(=O)[C@H](NC(=O)C(=NO)c3csc(N)n3)[C@H]2SC1	-23	.
c1cncc(CN2CCC(n3ncc4c(N5CCOCC5)nc(-c5ccc6[nH]ccc6c5)nc43)CC2)c1	-1	.
CNC(=O)c1ccccc1Nc1nc(Nc2ccc(N3CCOCC3)cc2OC)ncc1Cl	-11	.
COc1cc(Nc2ncc3c(n2)-c2ccc(Cl)cc2C(c2c(F)cccc2OC)=NC3)ccc1C(=O)O	-3	.
CC[C@]1(O)C[C@@H]2CN(CCc3c([nH]c4ccccc34)[C@@](C(=O)OC)(c3cc4c(cc3OC)N(C)[C@H]3[C@@](O)(C(=O)OC)[C@H](OC(C)=O)[C@]5(CC)C=CCN6CC[C@]43[C@@H]65)C2)C1	-10	.
CCc1nc(-c2cccc(C)c2)c(-c2ccnc(NC(=O)c3ccccc3)c2)s1	-27&-10&-11&-13&-11&-28&-34&-24	.
Cn1c(=O)n(-c2ccc(C(C)(C)C#N)cc2)c2c3cc(-c4cnc5ccccc5c4)ccc3ncc21	-15&-6&-21	.
c1ccc(Cn2c(-c3ccc(OCC(C4CCNCC4)n4c(-c5ccccc5)nc5ccccc54)cc3)nc3ccccc32)cc1 (stereo unspecified)	12	.
COc1ccc(CNc2nc(N(CCO)CCO)nc3c2ncn3C(C)C)cc1	-30	.

Profiles as entered above. Order of screens: HCMV UL50-53 inh | GIV Gai3 FP
Listed for `CNC(=O)c1ccccc1Nc1nc(Nc2ccc(N3CCOCC3)cc2OC)ncc1Cl` → -11 | .
Listed for `c1cncc(CN2CCC(n3ncc4c(N5CCOCC5)nc(-c5ccc6[nH]ccc6c5)nc43)CC2)c1` → -1 | .
Listed for `c1ccc(Cn2c(-c3ccc(OCC(C4CCNCC4)n4c(-c5ccccc5)nc5ccccc54)cc3)nc3ccccc32)cc1` (stereo unspecified) → 12 | .

More compounds follow.
SMILES	HCMV UL50-53 inh	GIV Gai3 FP
CN(C)C(CCOc1cccc2ccccc12)c1ccccc1 (stereo unspecified)	-4	.
Cc1cccc(Nc2cc(Cl)nc(SCC(=O)O)n2)c1C	-4&-3&-16&-16&-5	.
OCc1ccccn1	-39	.
CC1(C)O[C@H]2CC(=O)OC[C@]23[C@H]2CC[C@@]4(C)C(c5ccoc5)OC(=O)C5O[C@]54[C@@]2(C)C(=O)C[C@@H]13 (stereo partly specified)	-7	.
COc1c(O)cc2c(c1O)[C@H]1O[C@H](CO)[C@@H](O)[C@H](O)[C@@H]1OC2=O	-43	.
COc1c(O)cc2c(c1O)[C@@H]1OC(CO)C(O)C(O)[C@H]1OC2=O (stereo partly specified)	8	.
Cc1cc(C(C)Nc2ccccc2C(=O)O)c2nc(N3CCOCC3)cc(=O)n2c1 (stereo unspecified)	-19&-9&-11&-15&-27	.
CCCCOc1ccc(CC(=O)NO)cc1	-5&-12	.
NCCNC(=O)c1ccc(Cl)cn1	-5	.
CCOC(=O)NNc1nncc2ccccc12	4	.
CN(C)CC(=O)Nc1ccc2[nH]c(=O)c3ccccc3c2c1	-1&-9	.
COc1cc(NC(=O)c2ccc(-c3ccc(Cl)cc3)o2)cc(OC)c1	-3	.
O=C1NCCc2[nH]c(-c3ccnc(-c4cnc5ccccc5c4)c3)cc21	-28	.
c1ccc(C(OC2CCN(CCCc3nn[nH]n3)CC2)c2ccccc2)cc1	-21&-21	.
CC(=O)Nc1ncc([N+](=O)[O-])s1	-152&-106	.
CC(=O)O[C@@]12COC1CC(O)[C@@]1(C)C(=O)C(O)C3=C(C)C(OC(=O)C(O)C(NC(=O)OC(C)(C)C)c4ccccc4)C[C@](O)(C(OC(=O)c4ccccc4)C21)C3(C)C (stereo partly specified)	-34	.
Oc1cc2c(cc1O)[C@@H]1c3ccc(O)c(O)c3OC[C@]1(O)C2	-5	.
C=CC1=C(C(=O)O)N2C(=O)C(NC(=O)C(=NO)c3csc(N)n3)C2SC1 (stereo unspecified)	-36	.
O=C(O)CCC/C=C\C[C@@H]1C(=O)C[C@@H](O)[C@@H]1/C=C/[C@@H](O)CCc1ccccc1	-22&-22	.
COc1cc2ncnc(Oc3cccc(NC(=O)Nc4cc(C(C)(C)C(F)(F)F)on4)c3)c2cc1OC	-10	.
COc1ccc(-c2cnc3c(-c4cccc5ncccc45)cnn3c2)cc1	-34	.
Cc1cc2c(cc1CC(=O)c1sccc1S(=O)(=O)Nc1onc(C)c1Cl)OCO2	-29	.
CC(C)Oc1ccc(-c2cnc3c(-c4ccnc5ccccc45)cnn3c2)cc1	24	.
CCNC(=O)Nc1ccc(-c2nc3c(c(N4CCOCC4C)n2)CCN(C2COC2)C3)cc1 (stereo unspecified)	4	.
Cc1nc(Nc2n[nH]c3c2CN(C(=O)NC(CN(C)C)c2ccccc2)C3(C)C)c2sccc2n1 (stereo unspecified)	-4	.
CCNC(=O)c1noc(-c2cc(Cl)c(O)cc2O)c1-c1ccc(OC)cc1	-7	.
NC1(c2ccc(-c3nc4ccn5c(=O)[nH]nc5c4cc3-c3ccccc3)cc2)CCC1	-63&-4&-5&-21&-49	.
CC(=O)c1c(C)c2cnc(Nc3ccc(N4CCNCC4)cn3)nc2n(C2CCCC2)c1=O	-2&1&-3&-8&-6	.
CC(C)n1nc(-c2ccc3oc(N)nc3c2)c2c(N)ncnc21	0	.
CN1CCN(C2CCN(C(=O)Nc3cc(Oc4ccc(NC(=O)C5(C(=O)Nc6ccc(F)cc6)CC5)c(F)c4)ccn3)CC2)CC1	-16	.
CC(C)N(CC1OC(n2cnc3c(N)ncnc32)C(O)C1O)C1CC(CCc2nc3ccc(C(C)(C)C)cc3[nH]2)C1 (stereo unspecified)	4	.
COc1ccnc2[nH]cc(C(=O)C(=O)N3CCN(C(=O)c4ccccc4)CC3C)c12 (stereo unspecified)	3	.
O=C(O)CCC/C=C\CC1C(=O)C[C@@H](O)[C@@H]1/C=C/[C@@H](O)COc1ccccc1 (stereo partly specified)	-16&-16	.
O=C(Nc1ccccc1)Nc1ccc(-c2ccc(C(=O)C3CCCC3C(=O)O)cc2)cc1 (stereo unspecified)	-7	.
O=C(O)c1ccc2c(c1)nc(Nc1cccc(Cl)c1)c1ccncc12	-60&-15&-40&-67	.
Cc1ccc2nc(NCCN)c3ncc(C)n3c2c1	-3&-17&-18&-16&-13&12	.
N#Cc1ccc2[nH]cc(CCCCN3CCN(c4ccc5oc(C(N)=O)cc5c4)CC3)c2c1	-16	.
CNc1nc(Nc2cn(C(C)(C)C#N)nc2C)ncc1C(F)(F)F	3	.
COc1ccc(NS(=O)(=O)c2sc3ccc(Cl)cc3c2C)cc1N1CCNCC1	-7	.
C[C@H]1[C@H](C)CC[C@]2(C(=O)O[C@@H]3O[C@H](COC4O[C@H](CO)[C@@H](OC5O[C@@H](C)[C@H](O)[C@@H](O)[C@H]5O)[C@H](O)[C@H]4O)[C@@H](O)[C@H](O)[C@H]3O)CC[C@]3(C)C(=CC[C@@H]4[C@@]5(C)C[C@@H](O)[C@H](O)[C@@](C)(CO)C5CC[C@]43C)[C@H]12 (stereo partly specified)	-22	.

Ordered by value in GIV Gai3 FP (descending): 7 from the list above.
SMILES	GIV Gai3 FP
O=C(NC1CCCc2ccccc21)C1CCN(Cc2noc(-c3ccc(F)cc3)n2)CC1 (stereo unspecified)	111
CCCS(=O)(=O)c1nc2ccc(NS(=O)(=O)c3ccc(Cl)cc3)cc2s1	106
Cc1nn(-c2ccc(-c3ccccc3)nn2)c(C)c1S(=O)(=O)N1CCN(C(C)C)CC1	103
O=C(C1CCN(c2nc(-c3ccc(Cl)cc3)no2)CC1)N1CCN(c2ncccn2)CC1	102
CCOC(=O)C1CCN(c2ccc3nnc(CCc4nc(-c5ccc(F)cc5)no4)n3n2)CC1	100
Cc1noc(C2CN(C(=O)NC(C)(C)C)CC23CCOCC3)n1 (stereo unspecified)	99
CN(C)c1ccc2ncc(=O)n(C)c2n1	98

(more compounds)
SMILES	HCMV UL50-53 inh	GIV Gai3 FP
COC(=O)N1CCN(Cc2cccc(NC(=O)Nc3ccc(C)nc3)c2F)CC1	-1	.
CC1CC(=O)NN=C1c1ccc(NN=C(C#N)C#N)cc1 (stereo unspecified)	-79	.
CC[C@]1(O)C[C@H]2CN(CCc3c([nH]c4ccccc34)[C@@](C(=O)OC)(c3cc4c(cc3OC)N(C)[C@@H]3C45CCN4CC=C[C@@](CC)(C(OC(C)=O)[C@]3(O)C(=O)OC)[C@H]45)C2)C1 (stereo partly specified)	-13	.
O=C1Cc2c([nH]c3ccc([N+](=O)[O-])cc23)-c2ccccc2N1	-15&2	.
Cc1ccc(C(=O)N(CCCN)C(c2oc3cc(Cl)ccc3c(=O)c2Cc2ccccc2)C(C)C)cc1 (stereo unspecified)	3	.
O=C(O)Cn1nnc(-c2cc(N3CCC(Oc4cc(F)ccc4Br)CC3)no2)n1	-12	.
Cc1cc(Nc2nc(NC(C)c3ncc(F)cn3)ncc2Cl)n[nH]1 (stereo unspecified)	2	.
COc1ccc(C2=N[C@@H](c3ccc(Cl)cc3)[C@@H](c3ccc(Cl)cc3)N2C(=O)N2CCNC(=O)C2)c(OC(C)C)c1	4&4	.
O=C(O)CCC/C=C\C[C@@H]1[C@@H](/C=C/[C@H](O)CCc2ccccc2)[C@H](O)C[C@@H]1O	-20&-20	.
COC(c1ccccc1)(c1ccccc1)C(Oc1nc(C)cc(C)n1)C(=O)O (stereo unspecified)	9	.

A second format for some results above.
O=C(O)Cn1nnc(-c2cc(N3CCC(Oc4cc(F)ccc4Br)CC3)no2)n1
  HCMV UL50-53 inh: -12; GIV Gai3 FP: .
Cc1cc(Nc2nc(NC(C)c3ncc(F)cn3)ncc2Cl)n[nH]1 (stereo unspecified)
  HCMV UL50-53 inh: 2; GIV Gai3 FP: .
COc1ccc(C2=N[C@@H](c3ccc(Cl)cc3)[C@@H](c3ccc(Cl)cc3)N2C(=O)N2CCNC(=O)C2)c(OC(C)C)c1
  HCMV UL50-53 inh: 4&4; GIV Gai3 FP: .
O=C(O)CCC/C=C\C[C@@H]1[C@@H](/C=C/[C@H](O)CCc2ccccc2)[C@H](O)C[C@@H]1O
  HCMV UL50-53 inh: -20&-20; GIV Gai3 FP: .

New compounds follow:
SMILES	HCMV UL50-53 inh	GIV Gai3 FP
Cc1ccccc1C#Cc1ccc(CCC(=O)O)cc1	-12&-12	.
O=P(O)(O)OC(CO)CO	-20	.
CCCC(=O)O[C@@]1(C(=O)COC(C)=O)CC[C@H]2[C@@H]3CC(F)C4=CC(=O)C=C[C@]4(C)[C@]3(F)C(O)C[C@@]21C (stereo partly specified)	-15	.
O=C(O)C1(Cc2cccc(Nc3nccs3)n2)CCC(Oc2cccc(Cl)c2F)CC1 (stereo unspecified)	0	.
CNC1C(O)C(NC)[C@H]2O[C@@]3(O)C(=O)CC(C)O[C@H]3O[C@@H]2C1O (stereo partly specified)	-9	.
CNC1CCCN(c2c(F)cc3c(=O)c(C(=O)O)cn(C4CC4)c3c2OC)C1 (stereo unspecified)	-10	.
O=C(Nc1c(-c2cccs2)nc2ccccn12)c1ccc(Cl)cc1	0	.
CN(C)C(=O)c1ccc(S(=O)(=O)c2ccc(NC(=O)C(C)(O)C(F)(F)F)c(Cl)c2)cc1 (stereo unspecified)	-2	.
